gsp antagonist: qHTS for Antagonists of gsp, the Etiologic Mutation Responsible for Fibrous Dysplasia/McCune-Albright Syndrome: qHTS. gsp-mutant cells, cAMP HTRF, 30 min; control for the full effect not named in the record. Potency, µM (top dose mostly 76.9 µM), without a hit: at the highest dose activity change, negative = inhibition, usual class: inhibitors. 0.4% of 340,000 active. AID 624288, 2012; active = falling curve of any shape with a large fitted effect; inconclusive = falling curve, mostly with a smaller effect; inactive = flat or rising curve; cell line not stated here;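 also: intracellular cAMP measured with PDE inhibitor Ro 20-1724 present during compound exposure; potency is read from the fitted curve at half-maximal effect; % is scaled to controls: 0 for no effect and ±100 for the full control effect; nearly all actives have a fitted effect of over 65% in size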
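Cells in G418 medium, seeded 16-24 h, 37C; buffer exchange to DPBS + 1 mM CaCl2, 0.5 mM MgCl2, 0.05% BSA; cpds in DMSO + […] (300 uM stock), 30 min 37C; HTRF cAMP detection.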
Sfp PPTase inh: qHTS Assay for Inhibitors of Bacillus subtilis Sfp phosphopantetheinyl transferase (PPTase). 4'-phosphopantetheinyl transferase ffp (Bacillus subtilis), Q9F4F7. Biochemical Sfp PPTase activity, qHTS. 3.5% of 310,000 active. Potency, µM, without a hit: max response, negative = inhibition, most hits filed as inhibitors. AID 1490, 2009; active = well fitted inhibition curve with a large enough effect; inconclusive = small, poorly fitted or top-dose-only effect, or another doubt; inactive = no such curve, though single readings can be large or run the other way;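 also: the enzyme is Sfp with the accession as filed and its product quenches rhodamine fluorescence; potency is read from the fitted curve at half-maximal effect; 0% = enzyme reaction without inhibitor and -100% = no enzyme wells; top concentration of the series not given in the record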
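Compounds were incubated with enzyme (final 15 nM) for 15 min at room temperature before substrate addition started the reaction. Fluorescence at 525 nm excitation, 598 nm emission was recorded immediately and after 30 minutes.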
D2 PAM: Beta-Arrestin HTS for Positive Allosteric Modulators of the Human D2 Dopamine Receptor: Potentiators | D(2) dopamine receptor (Homo sapiens), P14416 | DiscoveRx D2 beta-arrestin cells, luminescence, 90 min; 100% = 57 uM dopamine signal | potentiation, % (no concentration beside the values) | 0.23% of 360,000 active | AID 624464, 2012; active = potentiation of 50% or more; inconclusive = 30% to 50%; inactive = 30% or less;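 also: compound concentration not given in the record; tested on top of an EC20 dose of dopamine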
Target sequence (P14416 whole entry, looked up): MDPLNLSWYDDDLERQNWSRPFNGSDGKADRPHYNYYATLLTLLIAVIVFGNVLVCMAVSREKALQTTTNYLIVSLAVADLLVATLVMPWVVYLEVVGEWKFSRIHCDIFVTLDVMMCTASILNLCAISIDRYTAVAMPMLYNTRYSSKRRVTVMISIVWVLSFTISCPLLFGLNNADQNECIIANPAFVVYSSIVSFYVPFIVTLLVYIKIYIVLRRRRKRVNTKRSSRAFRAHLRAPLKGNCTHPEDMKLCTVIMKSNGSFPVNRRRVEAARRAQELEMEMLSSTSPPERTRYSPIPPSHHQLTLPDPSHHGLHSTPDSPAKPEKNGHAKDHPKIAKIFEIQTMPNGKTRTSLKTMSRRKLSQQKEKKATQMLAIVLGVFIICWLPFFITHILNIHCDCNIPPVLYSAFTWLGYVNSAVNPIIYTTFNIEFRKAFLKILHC
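PathHunter D2 cells, attached overnight at 37 deg C, received compound in DMSO plus dopamine at EC20 (50 nM final) for 90 min at 37 deg C. Beta-arrestin recruitment was read as luminescence after 1 h with detection reagent at ambient temperature.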
Menin-MLL FL inh: qHTS Assay for Inhibitors Targeting the Menin-MLL Interaction in MLL Related Leukemias: Competition With Fluorescein Labeled MLL-derived Peptide. 290,000 tested, under 10 active. FP activity change, % at 61.4 µM. Fluorescence polarization, fluorescein-MLL peptide displacement from menin; inconclusive = falling polarisation curve, or a change in total fluorescence; inactive = total fluorescence flat and polarisation flat or rising; no compound was filed as active; the % refers to the polarisation; negative = inhibition;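 also: % of control where 0% means no effect; inhibitors lower the polarisation; unlabelled MLL peptide was the positive control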
gsp ag: qHTS for Agonist of gsp, the Etiologic Mutation Responsible for Fibrous Dysplasia/McCune-Albright Syndrome: qHTS | gsp mutant cells, cAMP HTRF, 30 min; control for the full effect not named in the record | Potency, µM (doses to about 76.9 µM), for the others: at the top dose activation (cAMP increase), usual class: activators | 0.13% of 340,000 active | AID 624287, 2012; active = well fitted activation curve with a large enough effect; inconclusive = small, poorly fitted or top-dose-only effect, or another doubt; inactive = no such curve, though single readings can be large or run the other way; cell line not stated here;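 also: phosphodiesterase inhibitor Ro 20-1724 added with compounds to block cAMP breakdown; potency is read from the fitted curve at half-maximal effect; nearly all actives have a fitted effect of over 60% in size; about a fifth of the inactives were tested at one dose only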
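Cells in DMEM/10% FBS with G418 were pretreated with compounds in DMSO plus […] (300 uM stock) for 30 min at 37C. cAMP was measured by HTRF (cAMP-d2 plus anti-cAMP antibody-K) after 30 min at room temperature.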
TRPV1 potentiator: HTS Assay for Compounds that Act as Potentiators of the Vanilloid Receptor 1. 0.02% of 320,000 active. Transient receptor potential cation channel subfamily V member 1 (Homo sapiens), Q8NER1. potentiation, % at 8.33 µM. TRPV1-expressing cells, Fluo-8 calcium influx, capsaicin EC20 potentiation; host cell line not named in the record; control for the full effect not named in the record; active means potentiation above 80%; inconclusive means 30% to 80%; inactive means below 30%; also: 0% is about no effect
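TRPV1-expressing cells were cultured overnight at 35.5C and loaded with Fluo-8 calcium dye for 40 to 90 min at room temperature. After a 10 s baseline, compound was added and calcium influx was read kinetically for 3 min (ex 480/em 520 nm).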
ClpP mod: qHTS Assay for Activators of ClpP; Potency, µM (titrated, usually from 57.5 µM), without a hit: at the highest dose activity change, negative = active; purified B. subtilis ClpP, FRET peptide cleavage, 20 min; 1.9% of 340,000 active; active = well fitted falling curve with a large enough effect; inconclusive = small, poorly fitted or top-dose-only effect; inactive = no such curve, though single readings can be large or run the other way; also: potency is read from the fitted curve at half-maximal effect; the source files actives as falling curves though it sought activators and does not explain the sign; nearly all actives have a fitted effect of over 65% in size; many hits overshoot -100%
Target sequence (P80244 whole entry, looked up): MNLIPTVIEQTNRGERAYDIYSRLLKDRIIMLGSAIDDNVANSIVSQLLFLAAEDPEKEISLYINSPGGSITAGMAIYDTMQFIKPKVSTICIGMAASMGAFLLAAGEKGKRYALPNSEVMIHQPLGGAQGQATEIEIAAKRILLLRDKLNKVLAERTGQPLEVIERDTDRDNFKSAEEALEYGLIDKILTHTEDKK
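Buffer: 100 mM Tris/HCl pH8, 100 mM KCl, 0.05% low protease BSA, 2.5% glycerol, 0.01% Tween-20. ClpP 10 microg/mL final; 20 min RT; delta FRET normalized to ADEP and DMSO controls.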
* hit, by the source's call; ? = inconclusive; · = no result given; & = joins results of further samples; [ ] = another dose, or the depositor's remark.

SMILES | gsp antagonist | Sfp PPTase inh | D2 PAM | Menin-MLL FL inh | gsp ag | TRPV1 potentiator | ClpP mod
O=C(C[C@H]1C/C=C\CC[C@H](Cc2ccc(F)cc2)C(=O)O[C@@H](c2ccccc2)CNC1=O)N[C@H](CO)Cc1ccccc1 | 11% | · | -2 | · | -6% | · | -0.5%
COC(=O)c1cccc(COC(=O)c2cc3ccccc3oc2=O)c1 | -10% | 4% | 1 | 3.1 | -40%[inhibitor] | 16 | ?
CCOC(=O)C(NC(=O)CC)(Nc1ccccc1OC)C(F)(F)F (stereo not given) | -2% | 17% | 11 | -0.1 | -4% | 7 | 0.3%
Cc1cc(=O)n(C)c(=O)n1CCCCOc1cccc([N+](=O)[O-])c1 | -11% | 10% | -2 | 4.2 | 10% | 21 | -0.3%
O=c1[nH]c(=O)n(Cc2ccccc2)c2nc(-c3ccco3)cc(C(F)(F)F)c12 | 1% | -7% | -9 | ? | -13% | -6 | 14µM*
COc1cc(OC)cc(C(=O)NC(=S)Nc2cc3oc4ccccc4c3cc2OC)c1 | 14% | -4% | -1 | -0.4 | -14% | 3 | -8.9%
Cc1ccc(C2=NN(C(=O)CSc3nc4ncc(Cl)cc4[nH]3)C(c3ccco3)C2)cc1 (stereo not given) | -3% | 45µM* | -9 | ? | 9%[15.4 µM] | 1 | ·
CCCCn1cnc2c([nH]c3ccccc32)c1=O | 2% | -3% | -6 | 0.6 | 7% | 1 | ?
Cc1ccccc1OC(=O)c1cccc(S(=O)(=O)N2CCN(C)CC2)c1 | -10% | · | -3 | · | 20% | -14 | -3.1%
COC(=O)C(NS(=O)(=O)c1ccccc1Br)C(C)C (stereo not given) | -2% | 15%&1% | -6 | 1.1&-1.0 | · | 11 | -3.7%
COc1ccccc1C(=O)N/C(=C/c1ccco1)C(=O)Nc1ccc(C(=O)O)cc1 | -5% | 50µM* | -8 | 13 | 4%[15.4 µM] | 4 | ·
CCOC(=O)[C@@H]1[C@H]2COc3ccccc3[C@@H]2N2C(=O)N(c3ccc(F)cc3)C(=O)[C@@]12C | 9% | 17% | -9 | 1.3 | 1% | -17 | -0.6%
CCOC(=O)c1c(C)oc(/N=C/c2ccccc2O)c1C#N | -5% | 11% | -6 | 0.2 | 0% | 3 | -1.3%
CCC(C)[C@H](NC(=O)[C@H](Cc1ccccc1)n1c(=O)[nH]c2ccccc2c1=O)C(=O)N1CCC(C(=O)O)CC1 (stereo not given in full) | 6% | 8% | -27 | -4.1 | · | 6 | -12%
COc1cccc(NC(=O)CCc2c(C)nc3nc(CNC(=O)c4cccc(F)c4)nn3c2C)c1 | -2% | 16% | -5 | · | 18% | 10 | -2.9%&1.1%
Cn1c(-c2ccc3c(c2)OCO3)c(C(=O)O)c(=O)c2ccccc21 | -4% | 11% | -5 | 3.1 | 22%[15.4 µM] | -4 | -1.2%
O=S(=O)(NCCc1ccncc1)c1ccc(Br)cc1 | 8% | 10% | -6 | 2.1 | ? | ? | -0.1%
COc1cccc(COC(=O)c2nn(-c3ccccc3)nc2N)c1 | 7% | 7% | -2 | -5.1 | -12% | -3 | 4.1%
Cc1nc(-c2cccc(S(=O)(=O)N3CC(C)CC(C)C3)c2)cs1 (stereo not given) | -21% | -4% | -28 | -0.5 | ? | -5 | 1.4%
COC(=O)CCC(=O)Nc1c(C)n(C)n(-c2ccccc2)c1=O | 1% | 17% | -1 | -3.0 | -33%[inhibitor] | 5 | ·

The last 2 compounds of the part before are carried over, then new ones follow.
SMILES | gsp antagonist | Sfp PPTase inh | D2 PAM | Menin-MLL FL inh | gsp ag | TRPV1 potentiator | ClpP mod
Cc1nc(-c2cccc(S(=O)(=O)N3CC(C)CC(C)C3)c2)cs1 (stereo not given) | -21% | -4% | -28 | -0.5 | ? | -5 | 1.4%
COC(=O)CCC(=O)Nc1c(C)n(C)n(-c2ccccc2)c1=O | 1% | 17% | -1 | -3.0 | -33%[inhibitor] | 5 | ·
NS(=O)(=O)c1cccc2cccnc12 | 7% | 15% | -4 | 2.9 | · | 0 | 0.2%
Cc1ccc(-c2nnn(CC(=O)N(Cc3ccc(F)cc3)C(C(=O)NC3CCCC3)c3ccncc3)n2)o1 (stereo not given) | 1% | 40µM* | -9 | 10 | -37%[inhibitor] | -4 | 0.9%
Cc1cc(C)c(C)c(S(=O)(=O)NCCCN2CCOCC2)c1C | 5% | 8% | -8 | -12 | 2%[15.4 µM] | 2 | ·
Cc1ccc(C(=O)Nc2ccccc2C(=O)N2CCN(c3ccccc3)CC2)cc1 | -8% | -2% | -9 | -1.0 | ? | -5 | -0.1%
COc1ccc(C(O)(C2CCCCC2)C(CN2CCCC2)c2ccccc2)cc1 (stereo not given) | -4% | -2% | -7 | 4.3 | -9%[15.4 µM] | -7 | ?
Cc1ccc(NC2=NCC(=O)N2c2ccc3c(c2)OCCO3)c(C)c1 | -5% | 0% | -10 | -0.2 | -21% | ? | -1.5%
CC(=O)Nc1ccc(NC(=O)C2CC(=O)N(c3ccccc3Cl)C2)cc1 (stereo not given) | 8% | 12% | -1 | 6.1 | 13% | 17 | ·
CC(=O)/C(=N\Nc1ccccc1)Oc1ccc([N+](=O)[O-])cc1 | -6% | -17% | 1 | 3.1 | -6% | -2 | -0.7%
COCCOC(=O)C1=C(N)Oc2c(oc(CO)cc2=O)C1c1c(F)cccc1Cl (stereo not given) | -7% | 27% | -3 | 0.2 | -29% | -50 | -0.5%
N#C/C(=C\c1cccnc1)c1ccccn1 | -4% | 5% | -3 | -2.6 | -4% | ? | 0.2%
O=C(Nc1ccc(Cl)cc1Cl)c1cc2ccccc2o1 | 8% | 0% | -6 | -7.7 | -2%[15.4 µM] | -11 | -0.6%
Cc1ccc2c(c1)C(c1ccccc1)N(C(=O)C(C)C)CC(=O)N2 (stereo not given) | 3% | 23% | -4 | 0.1 | ? | -5 | -0.6%
Cc1ccc(NC(=O)N2CCc3ccccc32)cc1 | -3% | -10% | -6 | 1.5 | 14% | 0 | 0.0%
CCOC(=O)C(C)n1cnc2c(nnn2-c2ccc(OC)cc2)c1=O (stereo not given) | 2% | 10% | -9 | 9.5 | 19% | 0 | -1.8%
CCC(=O)Nc1ccc(NC(=O)c2ccccc2Cl)nc1 | 8% | -4% | -4 | 6.9 | 19% | ? | -1.0%
O=C(NNC(=O)c1ccccc1[N+](=O)[O-])c1ccc(NS(=O)(=O)c2cccs2)cc1 | 4% | 6% | -3 | · | 1% | 3 | -1.0%
CC1CCCCN1C(=O)CSc1nc(C2CC2)nc2c1cnn2-c1ccccc1 (stereo not given) | 3% | 20µM* | 0 | -1.2 | -12% | 5 | -5.8%
CC(=O)Nc1ccc(S(=O)(=O)N(C)CC(=O)OCC(=O)Nc2cccnc2Cl)cc1 | -4% | 14% | -3 | 3.4 | 10% | 8 | -1.2%
N#Cc1cc([N+](=O)[O-])ccc1Oc1ccc(-c2nnco2)cc1 | 1% | 16% | 15 | 1.1 | -9% | -5 | ·
Cc1ccc(-c2nc(CS(=O)(=O)CC(=O)NC3CCC(C)CC3)c(C)o2)cc1 (stereo not given) | -6% | 0% | -10 | · | -5% | -16 | -5.2%
Cc1ccc(NC(=O)CN(C)C(=O)Nc2ccc(C)cc2)cc1 | 8% | 20% | -14 | 3.7 | 1%[15.4 µM] | -7 | ·
COc1cccc(N2CCN(C(=O)c3cc4c(OC)c(OC)c(OC)cc4[nH]3)CC2)c1 | -2% | 16% | -9 | -3.6 | -6% | -2 | 11%
NC(=O)c1c(-c2cccs2)csc1N | -19% | 40µM* | 23 | 5.7 | 9% | 0 | -0.3%
O=C(COc1ccccc1)Nc1cccc(-c2nn[nH]n2)c1 | -3% | -12% | -2 | · | ? | 3 | 0.0%
O=[N+]([O-])c1cc(-c2ccccc2)cc([N+](=O)[O-])c1O | -11% | · | -29 | · | -11% | · | ·
Nc1ccc2nc(-c3ccccc3)[nH]c2c1 | -8% | -19% | 1 | 2.6 | ? | 9 | ?
COc1cccc2c1C(=O)CC2NC(=O)C(F)(F)F (stereo not given) | 11% | 9% | -10 | 1.5 | 30% | 8 | -14%
CC(=O)Nc1ccc(SCC(=O)Nc2sccc2C#N)cc1 | 1% | 11% | -1 | 1.3 | 18%[15.4 µM] | 10 | ·
COCCCn1c(-c2ccc(OC)cc2)nc2c1c(=O)[nH]c(=O)n2Cc1ccccc1 | -3% | 17% | -6 | -11 | -17%[15.4 µM] | 5 | ·
CCn1c(=O)c2c3c(sc2n2c(=S)[nH]nc12)CCC3 | -6% | -6% | 6 | 2.5 | -3% | 10 | 1.0%
Cc1cc2ncn(S(=O)(=O)c3ccc(F)cc3)c2cc1C | 8% | 27% | -5 | 1.5 | -6% | 14 | -1.3%
Cc1ccc(CNC(=O)c2ccc(S(=O)(=O)Nc3c(C)n(C)n(-c4ccccc4)c3=O)cc2)cc1 | -6% | 24% | 0 | 3.7 | 11%[15.4 µM] | 3 | ·
COC(=O)c1ccc(-c2nc(CN3CCN(C(=O)c4ccco4)CC3)c(C)o2)cc1 | · | · | -11 | · | 2% | · | -3.9%
O=c1c(Cl)c(NCCO)ncn1-c1ccccc1 | 9% | 2% | -14 | 4.0 | -4% | -19 | 28µM*
CN(C(=O)COC(=O)CNC(=O)c1ccccc1Cl)c1ccccc1 | -7% | 10% | 0 | 7.3 | -7%[15.4 µM] | -5 | 2.7%
CCC(C)(C)NC(=O)/C=C/c1cnc2ccccc2n1 | -1% | -3% | -4 | 5.9 | 22% | -14 | -1.5%

Bioassay records: PubChem, National Center for Advancing Translational Sciences (NCATS)
